Screens: PubChem, Broad Institute
DUX4 inh: inhibitors of DUX4-driven ZSCAN4 reporter expression, primary screen, 293T cells, Gaussia and Italica luciferase; 293T-iDUX4 ZSCAN4-Gaussia luciferase reporter, 24 h; hits give low values; activity change, negative = inhibition, % (no concentration beside the values); hit rate 0.8% among 37,000;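 active = -10% or lower and over 25 points stronger than a control reporter; inconclusive = -10% or lower with a smaller gap; inactive = above -10%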;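 note: 0% = median of neutral control wells and -100% = median of positive control wells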
DUX4 inh difference: also measured in DUX4 inh; calls as there; Gaussia minus Italica difference, %; measured here: selective DUX4 reporter inhibition;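 worked out from the two reporters; negative = selective loss of the DUX4 reporter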
DUX4 inh control: recorded beside DUX4 inh, whose call it bears; activity change, negative = inhibition, %; measured here: Italica tet-on control reporter;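 0 = neutral control and -100 = positive control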
Active calls of the source: *.

Preview (three entries):
`CO[C@@H]1CN(C)C(=O)c2ccc(NC(=O)Nc3ccccc3)cc2OC[C@H](C)N(C(=O)CC2CC2)C[C@H]1C` gave DUX4 inh 0, DUX4 inh difference -1 and DUX4 inh control 1.0.
`O=C(CC(F)(F)F)N1C[C@@H]2[C@H](c3ccccc31)[C@@H](CO)N2C(=O)c1cccnc1` gave DUX4 inh -7, DUX4 inh difference -11 and DUX4 inh control 4.0.
Screening C[C@@H]1CCCCO[C@H](CN(C)Cc2ccc3c(c2)OCO3)[C@H](C)CN([C@H](C)CO)C(=O)c2cc(NS(=O)(=O)c3cn(C)cn3)ccc2O1 returned DUX4 inh 5, DUX4 inh difference 6 and DUX4 inh control -0.5.

This part in full, repeating the preview:
`CO[C@@H]1CN(C)C(=O)c2ccc(NC(=O)Nc3ccccc3)cc2OC[C@H](C)N(C(=O)CC2CC2)C[C@H]1C` gave DUX4 inh 0, DUX4 inh difference -1 and DUX4 inh control 1.0.
`O=C(CC(F)(F)F)N1C[C@@H]2[C@H](c3ccccc31)[C@@H](CO)N2C(=O)c1cccnc1` gave DUX4 inh -7, DUX4 inh difference -11 and DUX4 inh control 4.0.
Screening C[C@@H]1CCCCO[C@H](CN(C)Cc2ccc3c(c2)OCO3)[C@H](C)CN([C@H](C)CO)C(=O)c2cc(NS(=O)(=O)c3cn(C)cn3)ccc2O1 returned DUX4 inh 5, DUX4 inh difference 6 and DUX4 inh control -0.5.
For C[C@@H]1CN([C@H](C)CO)C(=O)c2cc(NS(=O)(=O)c3cccs3)ccc2O[C@@H](C)CCCCO[C@@H]1CN(C)S(=O)(=O)c1cn(C)cn1 the results were DUX4 inh 1, DUX4 inh difference -1 and DUX4 inh control 1.7.
CN(C)C(=O)C[C@H]1CC[C@@H]2[C@H](COC[C@H](O)CN2S(=O)(=O)c2ccccc2)O1 was read as DUX4 inh 6, DUX4 inh difference 5 and DUX4 inh control 1.0.
O=C(NCC1CC1)[C@H]1[C@H](CO)[C@H]2Cn3c(ccc(-c4cccnc4)c3=O)[C@H]2N1C(=O)NC1CCCC1 was read as DUX4 inh 4, DUX4 inh difference 4 and DUX4 inh control 0.2.
`CCCN1[C@H](C(=O)NC2Cc3ccccc3C2)[C@@H](CO)[C@@H]2Cn3c(cccc3=O)[C@@H]21` gave DUX4 inh -4, DUX4 inh difference -11 and DUX4 inh control 6.6.
COc1ccc(C#Cc2ccc3c(c2)[C@H]2[C@H](CCN2C(=O)C2CCCCC2)[C@H](CO)N3)cc1 was read as DUX4 inh 0, DUX4 inh difference -3 and DUX4 inh control 3.1.
C[C@H](NC(=O)C[C@@H]1C[C@H]2c3cc(NC(=O)NC4CCCCC4)ccc3O[C@H]2[C@@H](CO)O1)c1ccccc1 was read as DUX4 inh -3, DUX4 inh difference 1 and DUX4 inh control -3.7.
CC(C)[C@H](C)NC(=O)N(C)C[C@@H]1OCc2ccccc2-c2ccccc2C(=O)N([C@@H](C)CO)C[C@H]1C was read as DUX4 inh 12, DUX4 inh difference 9 and DUX4 inh control 3.0.
`Cc1cccc(-c2ccc([C@@H]3[C@@H](CO)N4C(=O)CN(C(=O)c5cnccn5)C[C@@H]34)cc2)c1` gave DUX4 inh 1, DUX4 inh difference -1 and DUX4 inh control 1.9.
Screening C/C=C/c1cccc(-c2nc(C(=O)NCCN3CCCCC3)cc3c2[C@H](CCO)N([S@@](=O)C(C)(C)C)C3)c1 returned DUX4 inh 12, DUX4 inh difference 6 and DUX4 inh control 6.2.
CCS(=O)(=O)Nc1ccc2c(c1)C(=O)N(C)[C@H]1CC[C@H](CC(=O)NCCOC)O[C@H]1CO2 was read as DUX4 inh -5, DUX4 inh difference -8 and DUX4 inh control 3.3.
`C/C=C/c1ccc([C@H]2[C@H](CO)N3C(=O)CN(Cc4ccccc4)C[C@@H]23)cc1` gave DUX4 inh 4, DUX4 inh difference -9 and DUX4 inh control 13.
`COC(=O)C[C@H]1CC[C@H]2[C@H](COc3ccc(NC(=O)c4cccc(F)c4)cc3C(=O)N2C)O1` gave DUX4 inh -1, DUX4 inh difference 1 and DUX4 inh control -2.0.
For CCN(C[C@H]1[C@H](c2ccccc2)[C@@H](CO)N1S(C)(=O)=O)C(=O)C1CCCC1 the results were DUX4 inh 2, DUX4 inh difference -3 and DUX4 inh control 5.3.
`CNC[C@H]1Oc2c(NC(=O)C3CCOCC3)cccc2C(=O)N([C@H](C)CO)C[C@@H]1C` gave DUX4 inh 2, DUX4 inh difference 0 and DUX4 inh control 2.0.
Screening Cn1cnc(CCNC(=O)C[C@H]2CC[C@H]3[C@@H](COC[C@H](O)CN3C(=O)Nc3ccccc3)O2)c1 returned DUX4 inh 15, DUX4 inh difference 0 and DUX4 inh control 15.
N#C[C@H]1[C@H](c2ccc(C3=CCCCC3)cc2)[C@@H](CO)N1C(=O)Cc1ccncc1 was read as DUX4 inh -2, DUX4 inh difference 0 and DUX4 inh control -2.0.
`O=C(Nc1ccccc1)[C@H]1[C@H](CO)[C@H]2Cn3c(cccc3=O)[C@@H]1N2C(=O)c1ccccc1` gave DUX4 inh 2, DUX4 inh difference 2 and DUX4 inh control -0.6.
For COc1cccc(NC(=O)C[C@@H]2CC[C@H]3[C@@H](COc4ccc(NS(=O)(=O)c5cccc(F)c5)cc4C(=O)N3C)O2)c1 the results were DUX4 inh 4, DUX4 inh difference 4 and DUX4 inh control -0.1.
For C/C=C/c1ccc2c(c1)O[C@H](CN(C)C(=O)NCCC)[C@@H](C)CN([C@H](C)CO)S2(=O)=O the results were DUX4 inh -7, DUX4 inh difference -4 and DUX4 inh control -2.1.
CN1c2ccc(C#Cc3cccnc3)cc2[C@@H]2[C@@H](CCN2C(=O)C2CCOCC2)[C@H]1CO was read as DUX4 inh 0, DUX4 inh difference -4 and DUX4 inh control 4.6.
For C[C@@H]1CN([C@@H](C)CO)C(=O)c2cc(NC(=O)NC3CCCCC3)ccc2O[C@H]1CN(C)S(C)(=O)=O the results were DUX4 inh 4, DUX4 inh difference 2 and DUX4 inh control 2.7.
For CCNC(=O)[C@@H]1[C@@H](CO)[C@@H]2Cn3c(cccc3=O)[C@H]1N2C(=O)C1CCC1 the results were DUX4 inh 8, DUX4 inh difference -6 and DUX4 inh control 14.
Screening CN(C)C(=O)C[C@H]1C[C@H]2c3cc(NC(=O)Nc4ccccc4F)ccc3O[C@H]2[C@H](CO)O1 returned DUX4 inh 10, DUX4 inh difference 4 and DUX4 inh control 6.2.
For O=C(c1ccc(F)cc1)N1CC(=O)N2[C@@H](CO)[C@H](c3ccc(C#CC4CCCCC4)cc3)[C@@H]2C1 the results were DUX4 inh inconclusive.
For CN1C(=O)c2cc(NS(=O)(=O)c3cccc(F)c3)ccc2OC[C@H]2O[C@@H](CC(=O)NCCN3CCCCC3)CC[C@H]21 the results were DUX4 inh -3, DUX4 inh difference -4 and DUX4 inh control 0.7.
Screening C[C@@H]1CN([C@@H](C)CO)C(=O)c2cc(C#CC3(O)CCCC3)cnc2O[C@H]1CN(C)C(=O)Cc1ccncc1 returned DUX4 inh 6, DUX4 inh difference 4 and DUX4 inh control 1.5.
`CCC(=O)N1CC(=O)N2[C@@H](CO)[C@@H](c3ccc(C#CC4CCCCC4)cc3)[C@@H]2C1` gave DUX4 inh 4, DUX4 inh difference 12 and DUX4 inh control -8.4.
CCS(=O)(=O)NCC[C@@H]1CC[C@H](NC(=O)Nc2cc(Cl)cc(Cl)c2)[C@@H](CO)O1 was read as DUX4 inh -3, DUX4 inh difference 4 and DUX4 inh control -6.6.
`CCC(=O)N1[C@H](CN(C)C(C)=O)[C@H](c2ccc(-c3ccc(F)cc3)cc2)[C@@H]1CO` gave DUX4 inh 0, DUX4 inh difference -2 and DUX4 inh control 2.0.
For O=C(C[C@H]1C[C@@H]2c3cc(NC(=O)CC4CC4)ccc3O[C@@H]2[C@H](CO)O1)NCCc1ccccc1 the results were DUX4 inh 9, DUX4 inh difference 8 and DUX4 inh control 1.0.
Screening O=C(CC1CC1)N1CC2(C1)[C@H](c1ccccc1)[C@H](CO)N2C(=O)c1cccnc1 returned DUX4 inh 17, DUX4 inh difference 16 and DUX4 inh control 1.0.
For CCC(=O)N1[C@H](CO)[C@H](c2ccc(C#CC3CCCCC3)cc2)[C@@H]1CNC(C)C the results were DUX4 inh -1, DUX4 inh difference 1 and DUX4 inh control -1.6.
N#C[C@@H]1[C@H](c2ccccc2-c2ccccc2)[C@@H](CO)N1c1ncc(-c2ccccc2)s1 was read as DUX4 inh inconclusive.
For COCCNC(=O)C[C@H]1CC[C@H]2[C@@H](COC[C@H](O)CN2C(=O)Nc2ccc3c(c2)OCO3)O1 the results were DUX4 inh 4, DUX4 inh difference -1 and DUX4 inh control 5.6.
Screening COc1ccccc1CN(C)C[C@@H]1OCc2ccccc2-c2c(n(C)c3ccccc23)C(=O)N([C@@H](C)CO)C[C@H]1C returned DUX4 inh inconclusive.
For COc1ccccc1CNC(=O)C[C@H]1C[C@@H]2c3cc(NC(=O)c4ccc5c(c4)OCO5)ccc3O[C@@H]2[C@H](CO)O1 the results were DUX4 inh 6, DUX4 inh difference 11 and DUX4 inh control -5.0.
CC(=O)N(C)C[C@H]1Oc2cc(-c3ccc(C)cc3)ccc2S(=O)(=O)N([C@@H](C)CO)C[C@@H]1C was read as DUX4 inh 2, DUX4 inh difference -3 and DUX4 inh control 4.6.
`O=C(C[C@H]1CC[C@@H]2[C@H](COC[C@@H](O)CN2CCC(F)(F)F)O1)N1CCC(Cc2ccccc2)CC1` gave DUX4 inh 7, DUX4 inh difference 4 and DUX4 inh control 3.9.
CO[C@H]1CN(C)C(=O)c2cc(NC(=O)Cc3ccccc3)ccc2OC[C@H](C)N(C(=O)c2ccccc2F)C[C@@H]1C was read as DUX4 inh 5, DUX4 inh difference 2 and DUX4 inh control 3.3.
`CS(=O)(=O)N1CC(=O)N2[C@H](C1)[C@H](c1ccc(C#CCc3ccccc3)cc1)[C@@H]2CO` gave DUX4 inh inconclusive.
`C[C@H]1CN([C@@H](C)CO)C(=O)c2cc(C#CCC3CCCC3)cnc2O[C@@H]1CN(C)S(=O)(=O)c1cccs1` gave DUX4 inh -2, DUX4 inh difference -1 and DUX4 inh control -1.4.
For C[C@H]1CN([C@@H](C)CO)C(=O)c2cccc(NC(=O)c3ccc(-c4nccs4)cc3)c2O[C@@H]1CN(C)C(=O)Nc1ccc(C(F)(F)F)cc1 the results were DUX4 inh -3, DUX4 inh difference -2 and DUX4 inh control -0.5.
Screening Cc1noc(C)c1S(=O)(=O)Nc1ccc2c(c1)C(=O)N([C@@H](C)CO)C[C@H](C)[C@H](CN(C)Cc1ccc3c(c1)OCO3)O2 returned DUX4 inh -1, DUX4 inh difference -4 and DUX4 inh control 2.5.
For N#C[C@H]1[C@H](c2ccc(C#CCC3CCCC3)cc2)[C@H](CO)N1C(=O)CN1CCOCC1 the results were DUX4 inh 0, DUX4 inh difference -1 and DUX4 inh control 0.8.
COc1ccc(C#Cc2ccc([C@@H]3[C@H]4CN(C(=O)Nc5cccc(F)c5)CCCCN4[C@H]3CO)cc2)cc1 was read as DUX4 inh inconclusive.

3 compounds out of the list, ordered by formula weight, rising.
N#C[C@@H]1[C@H](c2ccccc2-c2ccccc2)[C@@H](CO)N1c1ncc(-c2ccccc2)s1 was read as DUX4 inh inconclusive.
For COCCNC(=O)C[C@H]1CC[C@H]2[C@@H](COC[C@H](O)CN2C(=O)Nc2ccc3c(c2)OCO3)O1 the results were DUX4 inh 4, DUX4 inh difference -1 and DUX4 inh control 5.6.
`O=C(C[C@H]1CC[C@@H]2[C@H](COC[C@@H](O)CN2CCC(F)(F)F)O1)N1CCC(Cc2ccccc2)CC1` gave DUX4 inh 7, DUX4 inh difference 4 and DUX4 inh control 3.9.

Other results follow:
`CCC(=O)N1C[C@H](C)[C@@H](OC)CN(C)C(=O)c2cc(NC(=O)c3cc(C)on3)ccc2OC[C@H]1C` gave DUX4 inh 1, DUX4 inh difference 2 and DUX4 inh control -1.6.
Screening O=C(O)C[C@@H]1CC[C@@H](NC(=O)CCN2CCCCC2)[C@H](CO)O1 returned DUX4 inh 0, DUX4 inh difference 3 and DUX4 inh control -2.9.
Screening CNC(=O)C[C@H]1CC[C@H]2[C@@H](COC[C@H](O)CN2Cc2ccc(Cl)c(Cl)c2)O1 returned DUX4 inh 0, DUX4 inh difference 9 and DUX4 inh control -9.5.
For CN(C)CC(=O)Nc1ccc2c(c1)[C@@H]1C[C@H](CC(=O)NC3CCCCC3)O[C@H](CO)[C@@H]1O2 the results were DUX4 inh -2, DUX4 inh difference -1 and DUX4 inh control -0.6.
COCC(=O)N1[C@H](CO)[C@@H](c2ccccc2)C12CN(C(=O)Nc1ccccc1F)C2 was read as DUX4 inh 4, DUX4 inh difference 5 and DUX4 inh control -1.5.
`Cc1ccc(S(=O)(=O)Nc2cccc3c2O[C@@H](CN(C)Cc2ccncc2)[C@@H](C)CN([C@H](C)CO)C3=O)cc1` gave DUX4 inh 3, DUX4 inh difference 1 and DUX4 inh control 1.9.
CC(C)C#Cc1ccc([C@@H]2[C@H]3CN(S(=O)(=O)c4ccccc4)CC(=O)N3[C@H]2CO)cc1 was read as DUX4 inh -10, DUX4 inh difference -6 and DUX4 inh control -3.8.
`CO[C@@H]1CN(C)C(=O)c2cc(NC(=O)C3CCCCC3)ccc2OC[C@@H](C)N(Cc2cccnc2)C[C@@H]1C` gave DUX4 inh -3, DUX4 inh difference -1 and DUX4 inh control -2.0.
`CN1C(=O)c2cc(NC(=O)Cc3cccs3)ccc2OC[C@H]2O[C@@H](CC(=O)NCCCN3CCOCC3)CC[C@@H]21` gave DUX4 inh 2, DUX4 inh difference -2 and DUX4 inh control 3.8.
For O=S(=O)(NCC[C@H]1CC[C@@H](NS(=O)(=O)c2cccc(Cl)c2)[C@@H](CO)O1)c1cccc(F)c1 the results were DUX4 inh -2, DUX4 inh difference 1 and DUX4 inh control -2.8.

A portion of the library; the hit share may differ from the screen's.
